Source: PubChem BioAssay
GRK2 inh: inhibitors of human GRK2 displacing RNA aptamer; bead flow cytometry, FAM-aptamer displacement from GRK2; inhibition of aptamer binding, % at 10 µM; hit rate 0.59% among 330,000; AID 488847;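 active = inhibition of aptamer binding above 40%, roughly 3 SD of noise, on plates passing a quality check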;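 note: median bead fluorescence of bound FAM aptamer so fluorescent compounds give negative values; no value below 0 was filed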
Target sequence (P25098 whole entry, looked up): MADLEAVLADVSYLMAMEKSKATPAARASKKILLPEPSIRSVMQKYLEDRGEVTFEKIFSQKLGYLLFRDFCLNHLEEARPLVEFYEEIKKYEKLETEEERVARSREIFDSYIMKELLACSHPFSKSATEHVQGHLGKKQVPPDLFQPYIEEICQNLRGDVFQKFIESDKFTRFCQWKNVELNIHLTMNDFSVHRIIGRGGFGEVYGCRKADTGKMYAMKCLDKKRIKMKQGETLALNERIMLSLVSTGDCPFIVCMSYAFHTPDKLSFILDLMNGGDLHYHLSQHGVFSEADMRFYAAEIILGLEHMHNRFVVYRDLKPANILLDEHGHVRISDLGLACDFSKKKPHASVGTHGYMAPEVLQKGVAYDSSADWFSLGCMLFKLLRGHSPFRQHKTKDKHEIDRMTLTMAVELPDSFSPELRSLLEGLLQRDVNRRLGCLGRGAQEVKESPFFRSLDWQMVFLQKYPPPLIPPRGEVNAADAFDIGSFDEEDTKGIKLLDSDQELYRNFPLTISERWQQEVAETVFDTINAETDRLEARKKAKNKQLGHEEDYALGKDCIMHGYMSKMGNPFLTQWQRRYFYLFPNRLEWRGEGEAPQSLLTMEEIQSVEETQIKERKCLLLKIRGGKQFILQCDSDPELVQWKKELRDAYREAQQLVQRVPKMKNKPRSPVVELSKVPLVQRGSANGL
VLA-4 inh: inhibition in a human VLA-4 binding assay | hit rate 0.2% among 330,000 | VLA-4 expressing cells, ligand binding flow cytometry | inhibition, % (about 7 µM as worked out from the volumes in the protocol); in the data active = inhibition above about 50%
Fam108B counter: counter-screen for RBBP9 inhibitors: inhibitors of mouse Fam108B; recombinant Fam108B, FP-Rh probe fluorescence polarization; inhibition, % at 9.51 µM; hit rate 0.33% among 300,000; AID 1947;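 active = inhibition above the screen mean inhibition plus 3 SD, computed separately per campaign, cut at about 18% in these data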;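 note: inhibitors lower polarization as less probe binds the enzyme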
AGP1-GFP MLPCN: yeast TOR pathway AGP1-GFP modulation; S. cerevisiae AGP1-GFP multiplex flow cytometry, 3 h; GFP as percent of DMSO wells; GFP response vs DMSO, % at 10 µM; hit rate 0.02% among 320,000;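 active = GFP response relative to DMSO above a set limit, near screen average plus 3 SD, cut at about 150% in these data; inconclusive = fewer than 70 cells counted for the yeast strain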;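 note: median GFP channel fluorescence of the gated AGP1 strain per well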
GLD-1 TGE inh: GLD-1-TGE RNA interaction inhibition (C. elegans); Q17339; purified GLD-1 + fluorescein TGE RNA, fluorescence polarization; inhibition, % at 5.96 µM; hit rate 0.44% among 320,000; AID 2280;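 active = percent inhibition above a per-plate cutoff, the plate mean of test compounds plus 3 SD, cut at about 30% in these data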;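 note: 0% = DMSO wells with GLD-1 and probe and 100% = wells lacking GLD-1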
CIT2-GFP yeast: alters CIT2-GFP fluorescence in TOR pathway yeast screen; AID 2029; hit rate 0.065% among 320,000; GFP response vs DMSO, % at 10 µM; S. cerevisiae CIT2-GFP strain, flow cytometry, 3 h; 100 means same as DMSO wells;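 active = GFP response relative to DMSO above a set limit, near the screen mean plus 3 SD, cut at about 150% in these data; inconclusive = Fewer than 70 cells measured for a yeast strain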;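 note: ratio of well median GFP fluorescence to mean of DMSO wells on the plate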
MEX-5 binding: C. elegans MEX-5 TCR-2 RNA binding activity; Q9XUB2; MEX-5/FITC-TCR2 RNA binding, fluorescence polarization; active compounds read low; activity score (negative = inhibition of binding), % at 10 µM; hit rate 0.38% among 300,000; AID 1832;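 active = inhibition past about -25% in most replicates, and total fluorescence under double the plate's negative control median, limit read from the data; inconclusive = replicates evenly split on the limit, or fluorescence at least double controls; inactive = too little inhibition in most replicates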;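 note: 0% = DMSO and -100% = 5 µM competing unlabeled TCR2 RNA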
Active calls of the source: *; ? = inconclusive; . = not tested or not shown; & = joins results of further samples.

SMILES	GRK2 inh	VLA-4 inh	Fam108B counter	AGP1-GFP MLPCN	GLD-1 TGE inh	CIT2-GFP yeast	MEX-5 binding
Cc1nc(N2CCN(C(=O)c3ccco3)CC2)c2c3c(sc2n1)CCC3	0	-3	3	98	4	95	-1.3
CCC(=O)N(CCC(c1ccco1)C(C)C)Cc1ccccc1 (stereo unspecified)	4	10	-2	100	-4	95	.
Cc1c(C)n(CCN(C)C)c2ccc(C(=O)OCCN(C)C)cc12	0	9	-2	96	2	97	0.3
O=C(Nc1nc(-c2ccccn2)cs1)c1ccc([N+](=O)[O-])o1	4	7	4	92	5	94	-5.0
Cc1ccc(-c2nc3cccnc3o2)cc1NC(=O)COc1ccc(Cl)cc1C	0	-17	-1	103	0	101	2.9
Cc1[nH]c(=O)[nH]c(=O)c1S(=O)(=O)NCCOC12CC3CC(CC(C3)C1)C2	0	-3	4	99	0	103	2.6
O=c1oc2ccccc2cc1-c1csc(Nc2nc3ccc(F)cc3s2)n1	0	-18	6	93	4	98	0.6
CCOC(=O)C1=C(C)Nc2nnnn2C1c1cccnc1 (stereo unspecified)	0	3	3	98	2	102	0.1
Fc1ccc(Nc2nc(-c3ccncc3)nc3ccccc23)cc1F	0	2	-15	82	8	90	-7.0
CC1CC(C(F)F)n2nc(C(=O)Nc3sc4c(c3C#N)CCC(C(C)(C)C)C4)nc2N1 (stereo unspecified)	0	1	1	96	2	94	0.2
CCOc1ccc(NC(=O)Nc2cc(-c3ccccc3)sc2C(=O)OC)cc1	0	12	22*	100	2	101	-0.9
CC(C)CNC(=O)CCCc1ccccc1	0	9	2	100	0	103	0.7
COc1ccc(Cl)cc1NC(=O)CN1CCc2ccccc21	4	-4	1	97	0	103	-0.4
COc1cccc2sc(Nc3nc(-c4cc5ccccc5oc4=O)cs3)nc12	0	-5	5	94	10	100	-1.4
CC1CC2C3CCC4=CC(=O)C=CC4(C)C3(F)C(O)CC2(C)C1(O)C(=O)CO (stereo unspecified)	4	5	0	110	0	107	-1.8
O=C(CSc1ccc2nnc(CCNC(=O)c3ccccc3)n2n1)Nc1ccccc1F	1	-22	2	102	6	105	2.0
COc1ccc(-n2nc(C(=O)Nc3ccc(OC)c(OC)c3)c3c4ccccc4n(C)c3c2=O)cc1	0	2	-8	96	-1	92	-1.2
Cc1ccc(-n2c(N)c(C(=O)Nc3ccccc3F)sc2=S)cc1C	15	20	1	101	0	96	-1.2
O=C(N/N=C/C=C/c1ccc2c(c1)OCO2)c1ccc([N+](=O)[O-])cc1	0	-10	0	97	12	98	-0.5
CCCCCn1c(N)c(-c2nc3ccccc3o2)c2c([N+](=O)[O-])nn(C)c(=O)c21	0	-5	2	94	2	80	-1.0
COc1ccc(-c2nc3c(c(=O)[nH]c(=O)n3Cc3ccccc3)n2C)cc1	1	-9	2	94	-4	98	-1.1
FC(F)(F)c1ccccc1-n1ccnc1	0	-6	-3	75	5	72	.
Cc1ccc(/C=c2\sc3nc(-c4cccnc4)nn3c2=O)cc1	6	-9	2	106	-1	87	-1.8
CC1CCN(C(=O)CSc2nnc(-c3ccc(S(=O)(=O)N4CCOCC4)cc3)n2C)CC1	0	-4	-2	95	2	103	-1.0
O=C(NCCN1CCOCC1)c1cc2c(=O)n3ccccc3nc2n1Cc1ccccc1	0	7	-2	99	7	97	-2.0

Sorted by heavy-atom count (descending): some entries from above.
SMILES	GRK2 inh	VLA-4 inh	Fam108B counter	AGP1-GFP MLPCN	GLD-1 TGE inh	CIT2-GFP yeast	MEX-5 binding
CCOc1ccc(NC(=O)Nc2cc(-c3ccccc3)sc2C(=O)OC)cc1	0	12	22*	100	2	101	-0.9
O=C(Nc1nc(-c2ccccn2)cs1)c1ccc([N+](=O)[O-])o1	4	7	4	92	5	94	-5.0
CC(C)CNC(=O)CCCc1ccccc1	0	9	2	100	0	103	0.7
FC(F)(F)c1ccccc1-n1ccnc1	0	-6	-3	75	5	72	.

Compounds from the list above that contain a thiophene ring, fused or not, in the order listed:
SMILES	GRK2 inh	VLA-4 inh	Fam108B counter	AGP1-GFP MLPCN	GLD-1 TGE inh	CIT2-GFP yeast	MEX-5 binding
Cc1nc(N2CCN(C(=O)c3ccco3)CC2)c2c3c(sc2n1)CCC3	0	-3	3	98	4	95	-1.3
CC1CC(C(F)F)n2nc(C(=O)Nc3sc4c(c3C#N)CCC(C(C)(C)C)C4)nc2N1 (stereo unspecified)	0	1	1	96	2	94	0.2
CCOc1ccc(NC(=O)Nc2cc(-c3ccccc3)sc2C(=O)OC)cc1	0	12	22*	100	2	101	-0.9

More compounds follow.
SMILES	GRK2 inh	VLA-4 inh	Fam108B counter	AGP1-GFP MLPCN	GLD-1 TGE inh	CIT2-GFP yeast	MEX-5 binding
Nc1ccccc1Nc1ccccc1	1	8	-4	106	-1	111	-1.4
C=CCn1c(CCNC(=O)c2cccs2)nnc1SCC(=O)Nc1cccc(F)c1	0	3	1	.	-1	109	-2.1
CCCCC1C(=O)N(c2ccccc2)N(c2ccc(O)cc2)C1=O (stereo unspecified)	0	16	0	104	-1	96	.
CC(=O)c1cc(C#N)c(N2CCCC2)nc1C	2	31	-1	96	-6	90	0.8
CN(C)C(=O)c1ccc2c3c(cccc13)CC2	2	2	4	104	12	107	0.2
O=C(O)[C@H](O)[C@@H](O)C(=O)O	0	12	-5	93	9	97	.
Cc1ccc(-c2cnc(NC(=O)CCC(=O)N3CCCCC3)n2C)cc1	0	2	1	98	-1	96	0.7
C#CCN(C)CCCOc1ccc(Cl)cc1Cl	0	3	-2	98	1	92	1.8
CCC(=O)c1ccc(O)cc1	2	4	-2	91	5	90	-1.6
c1ccc2[nH]cnc2c1	1	40	-3	88	3	84	-0.8
CCOC(=O)c1cc2nc(Nc3ccc(OC)cc3)sc2s1	3	-17	-3	97	-15	100	0.5
O=C(Nc1cccnc1)c1sc(Nc2ccccc2F)nc1-c1ccccc1	0	43	1	98	5	100	2.2
CC(=O)Nc1ccc(S(=O)(=O)Nc2nnc(C(C)(C)C)s2)cc1	2	9	-3	101	5	93	2.7
c1ccc(SSc2ccccc2)cc1	0	4	-1	70	2	77	-1.6
CCn1cc(/C=N/NC(=O)COc2cccc3cccnc23)c2ccccc21	0	5	2	104	-7	98	-0.3
CC1=N/C(=C\c2ccc(OC(C)C)cc2)C(=O)N1c1ccc(C(=O)O)cc1	0	-13	0	95	-3	103	-4.4
O=C(c1ccc2c(c1)OCO2)N1CCN=C1SCc1ccccc1	1	-1	1	103	1	97	0.0
O=C(CCc1ccc(S(=O)(=O)NC2CCCCC2)cc1)N(Cc1ccccc1)Cc1ccccc1	2	15	-9	112	7	107	1.0
CN1C(=O)C(CC(=O)Nc2ccc(F)cc2)N(Cc2ccco2)C1=S (stereo unspecified)	0	6	0	101	4	93	1.7
Nc1c(C(=O)Nc2ccccc2)sc2nc(-c3cccnc3)ccc12	3	9	1	111	2	109	-13
Nc1c(C(=O)Nc2ccc(S(=O)(=O)N3CCCC3)cc2)sc2nc3cc4c(cc3cc12)CCC4	1	-106	0	106	-13	112	-2.3
COc1ccc(C(C#N)Nc2ccccc2OC)cc1 (stereo unspecified)	0	5	2	97	1	96	1.1
O=C(N/N=C/c1ccc(-c2cccc([N+](=O)[O-])c2)o1)c1cccs1	0	-9	-7	99	2	105	-2.0
CC1=C(C(=O)Nc2ccccc2)C(c2cccnc2)n2nc(-c3cccnc3)nc2N1 (stereo unspecified)	0	-9	0	110	9	111	0.2
Cc1nc(-c2ccncc2)sc1C(=O)Nc1ccc(Br)cc1	2	10	-7	96	2	95	-0.4

Shown in markdown: three of the compounds above.
| canonical_smiles | GRK2 inh | VLA-4 inh | Fam108B counter | AGP1-GFP MLPCN | GLD-1 TGE inh | CIT2-GFP yeast | MEX-5 binding |
| --- | --- | --- | --- | --- | --- | --- | --- |
| CC1CC(C(F)F)n2nc(C(=O)Nc3sc4c(c3C#N)CCC(C(C)(C)C)C4)nc2N1 (stereo unspecified) | 0 | 1 | 1 | 96 | 2 | 94 | 0.2 |
| CCOc1ccc(NC(=O)Nc2cc(-c3ccccc3)sc2C(=O)OC)cc1 | 0 | 12 | 22* | 100 | 2 | 101 | -0.9 |
| CC(C)CNC(=O)CCCc1ccccc1 | 0 | 9 | 2 | 100 | 0 | 103 | 0.7 |

(list continues)
SMILES	GRK2 inh	VLA-4 inh	Fam108B counter	AGP1-GFP MLPCN	GLD-1 TGE inh	CIT2-GFP yeast	MEX-5 binding
CC(=O)CC(c1ccccc1)c1c(O)c2ccccc2oc1=O (stereo unspecified)	1&1&2	3&10&7	0&-5&1	?	-1&-4&5	?	-0.6&0.5&0.3
O=C(CNc1ccc(C(F)(F)F)cc1[N+](=O)[O-])OCC(=O)c1ccccc1	1	-20	-2	100	3	95	4.1
CCOC(=O)c1c(NC(=O)CN2CCCc3ccccc32)sc(C(C)=O)c1C	0	-29	1	?	1	?	-0.4
CC(C)(C)NC(=O)c1ccc2c3c(cccc13)CC2	0	-139	-10	92	3	87	1.6
O=C(O)c1ccc2c(=O)[nH]c(CN3CCOCC3)nc2c1	0	17	3	103	-1	99	2.7
CN1CCN(c2ccc(C(=O)NC3CCCCC3)cc2[N+](=O)[O-])CC1	3	8	-2	97	4	97	1.3
Nc1c(C(=O)Nc2cccc(Cl)c2Cl)sc2nc(-c3cccnc3)ccc12	1	-54	-16	109	-17	101	-7.0
Cc1ccc(Nc2nc(N)nc(CSc3ncccn3)n2)cc1	5	-2	-1	100	-1	105	0.0
Cc1ccc(C(=O)NNC(=O)/C=C\C(=O)O)cc1	2	-4	2	108	79*	105	0.6
CC(=O)N1N=C2c3ccccc3CCC2C1c1cccs1 (stereo unspecified)	2	12	-3	104	7	94	-1.2
Cc1ccsc1-c1nc(C(N)=O)c2[nH]c(=O)n(-c3ccc(Cl)cc3)c2n1	0	-23	0	94	14	99	-0.9
Cc1ccc(-c2cc(C(=O)N/N=C/c3c(C)nn(C)c3C)c3ccccc3n2)cc1C	0	1	-14	95	9	80	-0.3
COCCCn1c(=N)c(C(=O)NCC2CCCO2)cc2c(=O)n3ccccc3nc21 (stereo unspecified)	3	-1	0	?	4	.	0.0
O=C(COc1ccccc1)NC(=S)Nc1ccc2c3c(cccc13)CC2	0	-10	6	103	-9	112	-1.2
C[N+](C)(C)CCCCCC[N+](C)(C)C	0	-3	2	89	2	83	1.1
O=C(Oc1oc(-c2ccco2)nc1C=Nc1ccc(Cl)cc1)c1ccco1	2	28	3	82	6	102	1.2
COC(=O)c1ccccc1NC(=O)c1sc(=S)n(C)c1N	1	-16	5	109	2	116	-2.4
Cn1nnc2cc(C(=O)NC3CCCCC3)ccc21	1	7	-3	101	1	94	0.2
Nc1nc(CSc2ncccn2)nc(Nc2ccccc2)n1	0	4	1	107	3	109	-1.6
COc1ccc(C(=O)Nc2cccnc2)cc1	2	-7	1	101	8	102	-2.7
COc1cc(NS(=O)(=O)c2ccc(N)cc2)nc(OC)n1	0	47	0	95	1	91	1.3
Nc1nc(/C=C/c2ccc(F)cc2)nc(-c2ccccc2O)n1	3	13	-15	99	7	103	0.5
O=C(NCc1ccccc1)N1CCn2c(nc3ccccc32)C1	1	0	0	101	10	100	1.7
CCCCc1nc2ccccc2c(NC(=O)CN2CCN(C)CC2)c1CCC	1	3	5	103	2	104	-3.3
CCC(=O)Nc1nc2ccccc2n1CCN(C)C	0	3	1	97	-2	96	2.6
CCOc1ccc(CN2CCNC(=O)C2CC(=O)NCCC2=CCCCC2)cc1 (stereo unspecified)	0	4	0	110	13	111	-0.3
C1CCC(n2nnnc2CN2CCN(C3CCCC3)CC2)CC1	5	15	-5	110	-8	101	0.0
CN(c1ccccc1)c1nc(-n2ccnc2)nc(-n2ccnc2)n1	1	7	-6	97	-5	92	4.8
CC(=O)NS(=O)(=O)c1ccc(N)cc1	0&3	19&1	-3&14	85&88	0&-2	78&90	0.2

4 of the entries above in order of the MEX-5 binding value, smallest number first:
SMILES	MEX-5 binding
O=C(COc1ccccc1)NC(=S)Nc1ccc2c3c(cccc13)CC2	-1.2
CCOC(=O)c1c(NC(=O)CN2CCCc3ccccc32)sc(C(C)=O)c1C	-0.4
COCCCn1c(=N)c(C(=O)NCC2CCCO2)cc2c(=O)n3ccccc3nc21 (stereo unspecified)	0.0
O=C(O)c1ccc2c(=O)[nH]c(CN3CCOCC3)nc2c1	2.7

Some of the compounds tested (hit frequency here may not be typical).
